Source: PubChem (National Center for Advancing Translational Sciences (NCATS))
Cruzain inh Det: blocks cruzain activity in presence of Triton detergent; actives 0.43% (n = 200,000); P25779; Potency, µM, for inactives: max response, negative = inhibition, actives largely listed as inhibitors; purified cruzain, Z-FR-AMC fluorescence, 0.01% Triton; active means well fitted curve in the direction sought with a large enough effect; inconclusive means small, poorly fitted or top-dose-only effect, or another doubt; inactive means no such curve, though single readings can be large; an effect the other way counts as inactive or inconclusive;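 further: plate controls were neutral wells for no effect and buffer without enzyme for full effect; nearly all actives have a fitted effect of over 40% in size; top concentration of the series not given in the record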
Target sequence (P25779 123-467 limits assumed): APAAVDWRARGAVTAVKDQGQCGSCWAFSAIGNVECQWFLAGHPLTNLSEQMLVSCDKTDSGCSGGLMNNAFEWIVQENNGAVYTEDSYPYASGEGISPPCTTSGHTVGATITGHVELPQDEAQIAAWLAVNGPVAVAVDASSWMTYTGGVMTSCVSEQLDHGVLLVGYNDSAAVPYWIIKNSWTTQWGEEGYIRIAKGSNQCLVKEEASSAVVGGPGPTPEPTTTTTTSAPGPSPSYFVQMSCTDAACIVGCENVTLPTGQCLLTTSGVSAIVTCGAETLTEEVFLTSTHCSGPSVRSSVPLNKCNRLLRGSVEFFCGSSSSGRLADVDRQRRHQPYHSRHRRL
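Cruzain (1.5 nM) preincubated 15 min at RT with compound in 100 mM sodium acetate pH 5.5, 5 mM DTT, 0.01% Triton X-100. Reaction started with 2 uM Z-FR-AMC; AMC fluorescence (ex 360/em 450 nm) change over 60 s gave rate.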
MARV entry inh: blocks Marburg virus binding to or entry into cells; Marburg virus pseudotyped entry inhibition, cell reporter; control for the full effect not named in the record; about a third of the inactives were read at about 46 µM; Potency, µM (series often up to 37.8 µM), without a hit: top-dose activity change, negative = inhibition, hits mostly inhibitors; actives 1.8% (n = 300,000); AID 540276; active = well fitted inhibition curve with a large enough effect; inconclusive = small, poorly fitted or top-dose-only effect, or effect the other way; inactive = flat fitted curve, though single readings scatter; tested in HEK293 cells; about a fifth of its hits are not listed in these tables; further: on the % scale 0 is the no-effect control and ±100 the full control effect; luciferase read-out
2A StopGo: FMDV 2A StopGo reporter, luciferase signal | human cells with a luciferase reporter of 2A StopGo recoding; control for the full effect not named in the record | Potency, µM (doses to about 57.9 µM), inactives show at the top dose signal change, negative = less light | actives 1.2% (n = 410,000); active = well fitted falling curve with a large enough effect; inconclusive = small, poorly fitted or top-dose-only effect; inactive = no such curve, though single readings can be large or run the other way; tested in HEK293T cells; further: on the % scale 0 is the no-effect control and ±100 the full control effect; nearly all actives have a fitted effect of over 45% in size; luciferase light after 4 h
LASV entry inh: inhibitors of Lassa virus binding or cell entry | Lassa virus pseudotype entry inhibition, cell reporter; control for the full effect not named in the record | Potency, µM (highest dose often 37.9 µM), inactives show at the highest dose activity change, negative = inhibition, most hits filed as inhibitors | actives 1.2% (n = 300,000) | AID 540256; active means well fitted inhibition curve with a large enough effect; inconclusive means small, poorly fitted or top-dose-only effect, or effect the other way; inactive means flat fitted curve, though single readings scatter; tested in HEK293 cells; further: on the % scale 0 is the no-effect control and ±100 the full control effect; nearly all actives have a fitted effect of over 50% in size; luciferase read-out
SARS PLP yeast: SARS-CoV PLP inhibition in yeast. S. cerevisiae expressing SARS-CoV PLpro, growth rescue; control for the full effect not named in the record. Potency, µM (top dose mostly 32.9 µM), without a hit: at the top dose activity, positive = growth rescue. actives 0.19% (n = 330,000). AID 485353; further: 0% is about no effect; nearly all actives have a fitted effect of over 55% in size; growth read by luminescence after 48 h
NS1 function inh: inhibitors of influenza NS1 protein function. S. cerevisiae slowed by influenza A NS1, growth recovery by OD600. Potency, µM (series often up to 46.1 µM), without a hit: top-dose activity, positive = more growth. actives 0.4% (n = 270,000); further: actives are rising curves; nearly all actives have a fitted effect of over 50% in size
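S. cerevisiae expressing influenza A NS1, grown in glucose, washed, then diluted 1:100 into pH 6.0 -URA galactose medium with 23 nl compound. Growth recovery read as OD600; NS1-free strain serves as control.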
Cruzain inh noDet: blocks cruzain activity in detergent-free assay | P25779 | purified cruzain, Z-FR-AMC fluorescence, no detergent | Potency, µM, inactives show max response, negative = inhibition, actives largely listed as inhibitors | actives 2.3% (n = 200,000) | AID 1476; active means well fitted curve in the direction sought with a large enough effect; inconclusive means small, poorly fitted or top-dose-only effect, or another doubt; inactive means no such curve, though single readings can be large; an effect the other way counts as inactive or inconclusive;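 further: plate controls were enzyme without inhibitor for no effect and buffer without enzyme for full effect; nearly all actives have a fitted effect of over 40% in size; top concentration of the series not given in the record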
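Detergent-free condition (0.00005% Triton X-100) in acetate buffer pH 5.5 with DTT. 1.5 nM enzyme and compound were pre-mixed 15 min, then 2 uM Z-FR-AMC substrate added; reaction progress from fluorescence change between first and third reads (60 s).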
RE007 growth inh: less growth of the S. pombe RE007 Vpr strain; S. pombe RE007 Vpr strain, BacTiter-Glo ATP luminescence, 24 h; control for the full effect not named in the record; Potency, µM (titrated, usually from 92.2 µM), without a hit: top-dose activity change, negative = less growth; actives 0.21% (n = 360,000); active = well fitted falling curve with a large enough effect; inconclusive = small, poorly fitted or top-dose-only effect; inactive = no such curve, though single readings can be large or run the other way;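 further: on the % scale 0 is the no-effect control and ±100 the full control effect; nearly all actives have a fitted effect of over 50% in size; the assay follows cell death caused by Vpr and the record does not say whether a fall means rescue or toxicity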
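Fission yeast RE007 carrying one integrated HIV-1 vpr copy, seeded at OD 0.01 in PMG+AL medium with 23 nL pinned compound. Grown 24 h at 30 degrees; viability read by BacTiter-Glo luminescence after 5 min.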
Starred values were filed as active, the others as inactive; ? = inconclusive; nt = no result given; [ ] = another dose, or the depositor's remark. Unless noted, the call rests on the fitted dose curve; in most records, active means well fitted rising curve with a large enough effect; inconclusive means small, poorly fitted or top-dose-only effect; inactive means no such curve, though single readings can be large or run the other way. Potency means the concentration at half of the fitted maximal effect.

Molecule | Cruzain inh Det | MARV entry inh | 2A StopGo | LASV entry inh | SARS PLP yeast | NS1 function inh | Cruzain inh noDet | RE007 growth inh
COc1cc2c(C)nc3c(c(C)nn3-c3ccccc3)c2cc1OC | nt | -3.8%[46.1 µM] | 0.5% | nt | 0.0% | 2.8% | nt | -1.6%
COc1ccc(N(CC(=O)NCc2ccc(Cl)cc2)S(=O)(=O)c2c(C)n[nH]c2C)cc1 | nt | nt | -17.4% | nt | -5.8% | -5.7% | nt | 5.1%
CCc1c(C)nc2nncn2c1Nc1ccc(C)c(F)c1 | -3.0% | 0.0%[46.1 µM] | -28.8% | -25.0%[46.1 µM] | nt | nt | -2.5% | nt
Clc1ccc(OCc2nc(-c3ccncc3)no2)cc1 | 9.3% | 27.2% | nt | 11.1% | 2.7% | 5.9% | -3.7% | 13.3%
CCOC(=O)C1CCCN(Cc2nc(N)nc(Nc3ccccc3OC)n2)C1 (stereo not given) | -0.6% | -17.7% | -10.0% | -24.3% | -6.0% | -0.1% | 5.0% | -5.6%
Cc1ccc(Nc2nc(C)nc(N)c2S(=O)(=O)c2ccccc2)cc1 | -1.4% | 15.4%[46.1 µM] | 1.4% | 1.1%[46.1 µM] | nt | nt | -6.0% | nt
CC(C)(C)c1ccc(S(=O)(=O)NCC(=O)N2CCN(Cc3ccccc3)CC2)cc1 | nt | ? | -6.1% | -11.0% | 16.1% | 14.8% | nt | -1.7%
CCCN1CCC2(CC1)NC(CO)(CO)CO2 | 0.1% | 11.8% | -4.3% | 4.8% | 6.4% | 0.0% | 3.4% | 11.7%
O=C(c1cc(Br)c(Br)s1)N1CCN(C/C=C/c2ccccc2)CC1 | 2.8% | ? | 0.0% | -34.0% | -34.1% | -16.8% | 11.1% | -13.6%
COc1cccc(NC(=S)NC(=O)/C=C/c2ccco2)c1 | nt | ? | 62.8%[activator] | ? | 1.7% | -6.3% | nt | -15.8%
O=[N+]([O-])c1ccccc1S(=O)(=O)Nc1ccc(-c2ccc(N3CCOCC3)nn2)cc1 | nt | ? | 17.5% | ? | -4.0% | nt | nt | -2.8%
COc1ccc(CNC(=O)CCCn2ncn3c(cc4occc43)c2=O)cc1 | nt | nt | ? | nt | -2.0% | 9.1% | nt | 23.7%
CCCN(CCC)C(=O)c1ccc2c(c1)OCO2 | 0.7% | 1.1% | 16.1% | 9.1% | 16.3% | 1.2% | -7.9% | 0.4%
COc1ccc(/C=N/NC(=O)c2ccccc2O)cc1Cn1cc([N+](=O)[O-])cn1 | nt | nt | -11.5% | nt | 0.5% | 6.2% | nt | 25.1%
O=C(N/C(=C/c1cccc([N+](=O)[O-])c1)C(=O)N1CCOCC1)c1ccccc1Br | nt | 5.0% | -12.7% | -1.8% | 5.7% | 8.7% | nt | -1.8%
CCOC(=O)c1ccccc1NC(=O)/C=C/c1cc(OC)c(OC)c(OC)c1 | -8.2% | ? | 0.0% | 1.2% | -4.4% | 0.8% | ? | 2.7%
Cc1ccc(OC(=O)CCC(=O)Nc2ccc(C(N)=O)cc2)cc1 | nt | ? | 1.9% | -20.9% | nt | nt | nt | -16.3%
S=C(NCCc1ccccc1)Nc1ccc(Nc2ccccc2)cc1 | nt | ? | -7.7% | ? | -3.5% | -31.0% | nt | 1.8%
CN(C(=O)c1ccncc1)C1CCCCC1 | nt | -10.9%[46.1 µM] | -9.9% | -2.1%[46.1 µM] | -2.5% | -8.9% | nt | 0.9%
CCC(C)C(=O)N1c2ccccc2C(=C2SC(C(=O)OC)=C(C(=O)OC)S2)C(=S)C1(C)C (stereo not given) | -0.1% | ? | ? | ? | 3.6% | -14.3% | ? | -7.1%

Arranged by SMILES length (high to low): three of the compounds above.
Molecule | Cruzain inh Det | MARV entry inh | 2A StopGo | LASV entry inh | SARS PLP yeast | NS1 function inh | Cruzain inh noDet | RE007 growth inh
O=[N+]([O-])c1ccccc1S(=O)(=O)Nc1ccc(-c2ccc(N3CCOCC3)nn2)cc1 | nt | ? | 17.5% | ? | -4.0% | nt | nt | -2.8%
COc1ccc(/C=N/NC(=O)c2ccccc2O)cc1Cn1cc([N+](=O)[O-])cn1 | nt | nt | -11.5% | nt | 0.5% | 6.2% | nt | 25.1%
CN(C(=O)c1ccncc1)C1CCCCC1 | nt | -10.9%[46.1 µM] | -9.9% | -2.1%[46.1 µM] | -2.5% | -8.9% | nt | 0.9%

Given with values under each structure: part of the list above
Every second line gives: Cruzain inh Det, MARV entry inh, 2A StopGo, LASV entry inh, SARS PLP yeast, NS1 function inh, Cruzain inh noDet, RE007 growth inh
CCc1c(C)nc2nncn2c1Nc1ccc(C)c(F)c1
  -3.0%, 0.0%[46.1 µM], -28.8%, -25.0%[46.1 µM], nt, nt, -2.5%, nt
Clc1ccc(OCc2nc(-c3ccncc3)no2)cc1
  9.3%, 27.2%, nt, 11.1%, 2.7%, 5.9%, -3.7%, 13.3%
CCOC(=O)C1CCCN(Cc2nc(N)nc(Nc3ccccc3OC)n2)C1 (stereo not given)
  -0.6%, -17.7%, -10.0%, -24.3%, -6.0%, -0.1%, 5.0%, -5.6%
Cc1ccc(Nc2nc(C)nc(N)c2S(=O)(=O)c2ccccc2)cc1
  -1.4%, 15.4%[46.1 µM], 1.4%, 1.1%[46.1 µM], nt, nt, -6.0%, nt

Next section:
Molecule | Cruzain inh Det | MARV entry inh | 2A StopGo | LASV entry inh | SARS PLP yeast | NS1 function inh | Cruzain inh noDet | RE007 growth inh
CCOc1ccc(OCC)c(S(=O)(=O)NC2CC(C)(C)NC(C)(C)C2)c1 | nt | ? | 82.9%[activator] | ? | 1.3% | 5.8% | nt | 1.4%
Cc1ccc2onc(CC(=O)N(C)c3ccccc3)c2c1 | -2.0% | nt | 13.8% | -27.3%[46.1 µM] | nt | nt | -19.9% | nt
O=C(c1sc(N2CCOCC2)nc1-c1ccccc1)N1CCCCC1 | -1.0% | ? | -11.8% | -1.7% | 13.6% | -9.2% | 1.1% | -4.1%
Clc1ncccc1-c1nc2ccccc2s1 | nt | ? | 47.2%[activator] | 1.7% | 1.6% | -2.6% | nt | 2.0%
Cc1ccc(C)c(Oc2nc3c(c(=O)n(C)c(=O)n3C)n2Cc2ccccc2)c1 | -1.9% | 9.8%[46.1 µM] | -20.3% | 4.3%[46.1 µM] | nt | nt | -3.6% | nt
CCOC(=O)Cc1csc(SCC(=O)/C(C#N)=C(\C)N)n1 | ? | 1.5% | 18.3% | 5.4% | 4.4% | -0.5% | 0.9% | 22.8%
Cc1ccc2occ(CC(=O)Nc3nnc(C(C)C)s3)c2c1 | -1.1% | 7.9%[46.1 µM] | -12.0% | 8.7%[46.1 µM] | nt | nt | ? | nt
Cc1ccc(S(=O)(=O)NNc2nc3ccccc3nc2C(F)(F)F)cc1 | 0.3% | ? | 121.5%[activator] | 0.9% | 3.4% | 9.5% | -18.6% | 0.5%
O=C(CCS(=O)(=O)c1ccccc1Cl)NCCC1=CCCCC1 | nt | -5.0% | 26.4% | 7.4% | -6.7% | -3.6% | nt | 17.2%
CCc1nc2ccc(C(=O)NCCc3ccc(OC)c(OC)c3)cc2nc1CC | 0.7% | nt | ? | -21.6%[46.1 µM] | -6.1% | -7.4% | 23.1% | 3.2%
COc1cccc(CNC(=O)CSCC(=O)Nc2cc(C)on2)c1 | nt | ? | 8.2% | -6.0% | 0.9% | nt | nt | 6.6%
COCC(C)n1c(C)cc(C(=O)COC(=O)c2ccc3ncsc3c2)c1C (stereo not given) | -4.5% | 11.6% | -4.3% | -3.1% | 0.4% | 3.3% | 26.9% | -11.0%
CCc1nnc(NC(=O)[C@@H](NC(=O)c2ccc(C(C)(C)C)cc2)C(C)C)s1 | -6.8% | -22.3% | -17.2% | ? | -6.9% | -2.4% | 1.3% | -4.8%
Cc1cc([N+](=O)[O-])c(=O)[nH]c1C | nt | 19.3% | -13.1% | 14.0%[46.1 µM] | nt | nt | nt | 24.6%

3 of the compounds above, with values under each structure.
Value order: Cruzain inh Det, MARV entry inh, 2A StopGo, LASV entry inh, SARS PLP yeast, NS1 function inh, Cruzain inh noDet, RE007 growth inh
- COc1cccc(CNC(=O)CSCC(=O)Nc2cc(C)on2)c1
 : nt, ?, 8.2%, -6.0%, 0.9%, nt, nt, 6.6%
- CCOc1ccc(OCC)c(S(=O)(=O)NC2CC(C)(C)NC(C)(C)C2)c1
 : nt, ?, 82.9%[activator], ?, 1.3%, 5.8%, nt, 1.4%
- CCc1nc2ccc(C(=O)NCCc3ccc(OC)c(OC)c3)cc2nc1CC
 : 0.7%, nt, ?, -21.6%[46.1 µM], -6.1%, -7.4%, 23.1%, 3.2%
